Rhodamine fluor – compound fluoresces in the rhodamine spectral region. Rhodamine-region fluorescence, 547/598 nm, Tris buffer; stronger effect = higher value. max dye-equivalent concentration, M. 59,000 compounds, 0.05% hits. AID 594; in the data active means max dye-equivalent concentration above about 11 nM; inconclusive means between about 1.1 nM and that limit
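Compound fluorescence in 100 mM Tris, pH 8.0, read after 15 min at room temperature with 547 nm excitation and 598 nm emission. Output is dye-equivalent concentration from an on-plate rhodamine standard series.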
CRE Fsk mod – modulators of forskolin-stimulated CRE signaling in CHO cells; 71,000 compounds, 2.5% hits; Potency, µM (doses to about 38.2 µM), for the others: at the top dose activity change, negative = inhibition, most hits filed as activators; CHO CRE-bla reporter (cAMP response element driving beta-lactamase), forskolin EC10, beta-lactamase ratio; active means well fitted activation curve with a large enough effect in the signal ratio, with a control signal flat, not every such curve was filed as active; inconclusive means small, poorly fitted or top-dose-only effect, or effect the other way, or a change in a side signal; the % refers to the signal ratio; further: potency means the concentration at half of the fitted maximal effect; % of control where 0% means no effect
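Forskolin analogue NKH 477 at EC10 stimulated CRE-driven beta-lactamase in CHO cells alongside compound dilution series. Beta-lactamase was measured with CCF4, excitation 405 nm, emission ratio 460/530 nm.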
ERK AVP inh – inhibitors of vasopressin-stimulated ERK signaling pathway; HEK293-V1b, vasopressin-stimulated pERK AlphaScreen; Potency, µM (highest dose often 57.5 µM), for the others: at the highest dose activity, negative = inhibition, hits mostly inhibitors; 72,000 compounds, 0.99% hits; AID 995; further: potency means the concentration at half of the fitted maximal effect; on the % scale 0 is the no-effect control and ±100 the full control effect; nearly all actives have a fitted effect of over 55% in size
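V1b-HEK293 cells; cpd 30 min 37C; 25 nM vasopressin 5 min; lyse 10 min; AlphaScreen beads 5 hr RT. Normalized to DMSO basal and 25 nM vasopressin; AC50 by Hill fit.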
HBB splice mod – modulators of hemoglobin beta chain splicing | HBB splicing reporter cell assay, activation; EGFP reporter with mutant IVS2-654 intron; response scale: normalised to 500 nM splice-correcting PNA | Potency, µM (series often up to 46.1 µM), for inactives: top-dose activation, actives largely listed as activators | 65,000 compounds, 0.06% hits | AID 925; further: potency means the concentration at half of the fitted maximal effect; 0% is about no effect
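Compounds were applied for 2 days to HeLa EGFP-654 cells, 500/well in Optimem with 2% FCS. The reporter's EGFP is disrupted by mis-splicing of beta-globin intron IVS2-654. Readout: summed well GFP fluorescence from 488 nm laser scanning; reference was 500 nM antisense […] 654 PNA.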
Tau filament bind – binders of human tau filaments; P10636; recombinant tau filaments, thioflavin S fluorescence, 15 h; filaments grown with octadecylsulfate alongside compound; Potency, µM (series often up to 57.1 µM), for inactives: at the highest dose activity change, negative = inhibition; 71,000 compounds, 2% hits;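 further: potency means the concentration at half of the fitted maximal effect; on the % scale 0 is the no-effect control and ±100 the full control effect; actives lower thioflavin S fluorescence by blocking filaments or displacing dye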
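His-tagged recombinant human tau (exons 2, 3 and 10 included), 1 uM, was induced to fibrillize by 30 uM sodium octadecylsulfate with compound present. After 15 h at 37 C, thioflavine S fluorescence (ex 450, em 510 nm) was read.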
FLuc inh – firefly luciferase inhibition | P08659 | purified firefly luciferase, luminescence, 8 min | Potency, µM (top dose mostly 57.1 µM), inactives show at the highest dose activity change, negative = inhibition, actives largely listed as inhibitors | 72,000 compounds, 2.2% hits | AID 411; further: potency means the concentration at half of the fitted maximal effect; on the % scale 0 is the no-effect control and ±100 the full control effect; nearly all actives have a fitted effect of over 40% in size
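Inhibition of light generation by firefly luciferase from ATP and luciferin was profiled with concentration-response curves per sample, ATP held at 10 uM within the enzyme's linear range. Plates were read by luminescence after an 8-minute ambient incubation.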
TexasRed autofl – compounds fluorescent in Texas Red spectral region; max dye-equivalent concentration, M; Compound fluorescence, Texas Red channel, 547/618 nm; stronger effect = higher value; 59,000 compounds, 0.06% hits; in the data active means max dye-equivalent concentration above about 10 nM; inconclusive means between about 1.1 nM and that limit
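Dye-equivalent concentrations come from scaling compound signal (ex 547, em 618 nm) to six Texas Red standard concentrations run on every plate, after 15 min room-temperature incubation in pH 8.0 Tris (100 mM).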
DNA Pol III inh – inhibitors of bacterial DNA polymerase III holoenzyme; 71,000 compounds, 0.25% hits; AID 603; Potency, µM (top dose mostly 57.1 µM), for inactives: at the highest dose activity change, negative = inhibition; reconstituted DNA polymerase III holoenzyme replication, biochemical; further: potency means the concentration at half of the fitted maximal effect; on the % scale 0 is the no-effect control and ±100 the full control effect
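Reconstituted *E. coli* holoenzyme (0.35 nM Pol III, 1 nM beta, 154 nM SSB, 2 nM primase) was preincubated with compound for 15 min at RT. Synthesis on 1.4 nM ssM13Gori ran 35 min, then was stopped with PicoGreen/EDTA and read as dsDNA fluorescence.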
Hsp90 Hop PPI – changes Hsp90-Hop TPR2A binding signal, up or down. AlphaScreen TPR2A-His6 binding biotin-Hsp90 C-terminal peptide. 71,000 compounds, 0.44% hits. Potency, µM (doses to about 57 µM), inactives show top-dose activity change, negative = inhibition; active means well fitted curve in either direction with a large enough effect; inconclusive means small, poorly fitted or top-dose-only effect, or another doubt; further: potency means the concentration at half of the fitted maximal effect; on the % scale 0 is the no-effect control and ±100 the full control effect; many of its hits are not listed in these tables
15-hLO inh – blocks human 15-lipoxygenase activity; P16050; purified 15hLO-1, xylenol orange hydroperoxide absorbance; Potency, µM (series often up to 57.1 µM), for the others: top-dose activity change, negative = inhibition, most hits filed as inhibitors; 74,000 compounds, 1.4% hits; AID 887; further: potency means the concentration at half of the fitted maximal effect; on the % scale 0 is the no-effect control and ±100 the full control effect; nearly all actives have a fitted effect of over 55% in size
Target sequence (P16050 whole entry, looked up): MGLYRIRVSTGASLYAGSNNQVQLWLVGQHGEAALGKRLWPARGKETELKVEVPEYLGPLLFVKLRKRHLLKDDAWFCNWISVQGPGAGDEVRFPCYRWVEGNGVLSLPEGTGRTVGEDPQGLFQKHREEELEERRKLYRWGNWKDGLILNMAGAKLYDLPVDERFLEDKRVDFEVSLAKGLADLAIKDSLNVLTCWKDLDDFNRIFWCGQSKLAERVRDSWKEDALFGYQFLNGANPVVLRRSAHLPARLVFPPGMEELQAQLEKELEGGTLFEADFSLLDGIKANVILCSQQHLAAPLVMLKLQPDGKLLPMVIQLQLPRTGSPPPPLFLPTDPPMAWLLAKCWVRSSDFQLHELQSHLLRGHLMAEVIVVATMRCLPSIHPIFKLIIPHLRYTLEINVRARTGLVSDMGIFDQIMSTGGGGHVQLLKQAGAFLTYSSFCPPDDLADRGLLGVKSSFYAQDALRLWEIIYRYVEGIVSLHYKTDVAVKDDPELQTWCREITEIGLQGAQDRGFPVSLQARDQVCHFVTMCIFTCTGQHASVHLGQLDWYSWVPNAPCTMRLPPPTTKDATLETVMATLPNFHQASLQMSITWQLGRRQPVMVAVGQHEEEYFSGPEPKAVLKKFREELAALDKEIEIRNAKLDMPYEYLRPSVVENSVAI
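Readout: Fe(III)-xylenol orange absorbance, 573-to-405 nm ratio as reaction progress. Enzyme 40 nM purified human 15hLO-1, substrate 50 uM arachidonic acid, 6 min RT after 15 min compound preincubation; Hepes pH 7.5 buffer with Triton X-100.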
* = called active by the depositor; i = inactive; ? = inconclusive; . = no result given; [ ] = another dose, or the depositor's remark. Unless noted, the call rests on the fitted dose curve; in most records, active means well fitted curve in the direction sought with a large enough effect; inconclusive means small, poorly fitted or top-dose-only effect, or another doubt; inactive means no such curve, though single readings can be large; an effect the other way counts as inactive or inconclusive. This is a subset; rates above refer to the full screens.

SMILES	Rhodamine fluor	CRE Fsk mod	ERK AVP inh	HBB splice mod	Tau filament bind	FLuc inh	TexasRed autofl	DNA Pol III inh	Hsp90 Hop PPI	15-hLO inh
CC1Cc2nc(SCC(=O)NCCc3ccccc3)n(C)c(=O)c2S1 (stereo unspecified)	.	8.0%	.	0.3%	-15.0%	1.7%	.	-1.2%	1.6%	-3.6%
CCCc1ccc(OCc2ccc(C(=O)OC)o2)c(OC)c1	i	10.2%	47.0%[activator]	10.5%	-4.0%	-1.6%	i	-7.0%	17.5%	3.3%
COc1cc2c(cc1OC)CN(C(=O)COc1ccc(C)c(C)c1)CC2	i	-3.9%	1.3%	-1.2%	-0.8%	0.0%	?	-4.6%	-3.3%	0.1%
Nc1c(-c2ccccc2)n[nH]c1-c1ccccc1	i	?	-18.7%	-0.7%	1.4%	?	?	-6.5%	-6.3%	10.7%
COc1cccc(/C=N\n2c(C)nnc2C)c1OC	.	.	.	.	.	.	.	.	.	3.6%
c1cncc(-c2nn3c(Cn4nnc5ccccc54)nnc3s2)c1	i	10.9%	0.8%	2.7%[57.5 µM]	-8.5%	-0.1%	i	-1.9%	-2.8%	?
COc1ccc(S(=O)(=O)Nc2cc(Cl)ccc2OC)cc1	.	?	-0.8%	-1.4%[0.0738 µM]	-3.1%[11.4 µM]	1.5%	.	-0.2%[11.4 µM]	1.2%[11 µM]	-5.7%[11.4 µM]
COC(=O)c1ccc(O)c(Sc2cc(C(=O)OC)ccc2O)c1	i	15.0%	-27.4%	-1.7%	9.5%	1.8%	i	2.6%	-1.2%	15.8µM*
CCCc1[nH]nc2c1C(c1ccccc1OC)C(C#N)=C(N)O2 (stereo unspecified)	i	-7.1%	-22.2%	.	3.3%	-1.1%	i	-7.4%	-2.1%	?
CCOC(=O)c1[nH]c2ccc(F)cc2c1NC(=O)C(C)N1CCc2cc(OC)c(OC)cc2C1 (stereo unspecified)	i	?	-14.7%	-1.3%[57.5 µM]	10.0%	0.1%	i	-5.8%	-5.2%	-9.2%
N=c1c(C(=O)NCc2ccccc2)cc2c(=O)n3ccccc3nc2n1CCCN1CCOCC1	i	?	13.0%	.	?	0.1%	i	-15.1%	-8.3%	?
CC(C)(C)c1cc(C(=S)N2CCN(CCO)CC2)cc(C(C)(C)C)c1O	i	6.8%	-5.6%	-1.4%	?	-1.3%	i	-2.5%	-5.2%	?
CCC(Oc1ccccc1)C(=O)Nc1nc2ccccc2[nH]1 (stereo unspecified)	i	?	-7.5%	2.2%	-11.7%	-19.9%	i	1.8%	-6.8%	5.5%
Cc1cc(NC(=O)CSc2nc3c(c(=O)n2CCc2ccccc2)SC(C)C3)no1 (stereo unspecified)	.	1.3%	.	-0.3%	20.1%	-1.2%	.	-5.2%	3.2%	-4.3%
CC(C)n1c(=N)c(C(=O)NCCc2ccccc2)cc2c(=O)n3ccccc3nc21	i	10µM*	-3.9%	.	3.16µM*	2.8%	i	-9.0%	2.2%	-11.0%
CCCc1cc(C(N)=O)c(NC(=O)c2ccoc2C)s1	i	10µM*	20.7%	2.7%	-23.8%	-8.6%	i	0.8%	?	?
Cc1cc(=O)n2[nH]c(-c3ccccc3)cc2n1	i	14.2%	-17.4%	-0.6%	2.4%	-17.6%	i	-3.2%	-1.5%	12.2%
COc1cccc(-c2ccc3ncnc(NCCNC(C)=O)c3c2)c1	i	?	-12.5%	2.7%	7.4%	-0.3%[2.29 µM]	i	-1.6%	-3.8%	5.5%
O=C(Nc1nnc(-c2ccncc2)s1)C1CCCO1 (stereo unspecified)	i	-0.1%	14.4%	2.3%	-17.6%	0.6%	i	-1.8%	-4.0%	-16.0%
NC(=O)c1c(NC(=O)c2cccs2)sc2c1CCCCCC2	.	?	?	0.1%	.	7.94µM*	.	2.0%	11.1%	?

Quoted at random: 4 entries already listed.
SMILES	Rhodamine fluor	CRE Fsk mod	ERK AVP inh	HBB splice mod	Tau filament bind	FLuc inh	TexasRed autofl	DNA Pol III inh	Hsp90 Hop PPI	15-hLO inh
NC(=O)c1c(NC(=O)c2cccs2)sc2c1CCCCCC2	.	?	?	0.1%	.	7.94µM*	.	2.0%	11.1%	?
CC(C)(C)c1cc(C(=S)N2CCN(CCO)CC2)cc(C(C)(C)C)c1O	i	6.8%	-5.6%	-1.4%	?	-1.3%	i	-2.5%	-5.2%	?
CCC(Oc1ccccc1)C(=O)Nc1nc2ccccc2[nH]1 (stereo unspecified)	i	?	-7.5%	2.2%	-11.7%	-19.9%	i	1.8%	-6.8%	5.5%
CCCc1ccc(OCc2ccc(C(=O)OC)o2)c(OC)c1	i	10.2%	47.0%[activator]	10.5%	-4.0%	-1.6%	i	-7.0%	17.5%	3.3%

Next section
SMILES	Rhodamine fluor	CRE Fsk mod	ERK AVP inh	HBB splice mod	Tau filament bind	FLuc inh	TexasRed autofl	DNA Pol III inh	Hsp90 Hop PPI	15-hLO inh
COc1cccc(-c2csc(NC(C)=O)n2)c1	i	11.6%	-13.2%	0.9%	-0.6%	-28.2%	i	-5.4%	-1.3%	-19.1%
COc1ccccc1NC(=O)c1oc2ccccc2c1NC(=O)c1ccco1	i	?	6.1%	0.6%	198.2%	-0.8%	i	-2.1%	0.6%	13.9%
CC(=O)Oc1ccc2c(C)c(CC(C)O)c(=O)oc2c1 (stereo unspecified)	i	?	13.8%	-5.9%[57.5 µM]	4.6%	6.9%	i	7.3%	?	4.5%
CC(C)Nc1ncnc2c1cnn2-c1ccc(Cl)cc1	.	?	.	-0.8%	14.5%	2.51µM*	.	-6.2%	2.8%	-18.9%
Clc1ccc(-c2nnc(-c3ccco3)o2)cc1	i	5.8%	-8.2%	0.3%	2.5%	-17.7%	i	-2.1%	2.0%	-8.8%
Cc1ccc(C)c(NC(=O)CSc2nc3c(c(=O)n2C)SC(C)C3)c1 (stereo unspecified)	.	-11.4%	.	-0.5%	-9.1%	2.0%	.	-7.0%	-1.8%	-1.9%
CCCOc1ccc(C2/C(=C(/O)c3ccc(F)cc3)C(=O)C(=O)N2CCCN(C)C)cc1 (stereo unspecified)	i	?	1.0%	-0.6%	4.5%	3.2%	i	-0.9%	-2.0%	1.7%
Cc1nc2cc3nc(C)sc3cc2s1	i	?	-5.6%	0.0%[0.369 µM]	14.0%	15.8µM*	?	-1.5%	-4.7%	-32.2%
Cc1ccc(-c2nnc3ccc(SC(C)C(=O)O)nn23)cc1 (stereo unspecified)	.	4.3%	.	-0.1%	-17.3%	-0.6%	.	-1.9%	-0.2%	10µM*
COCCNC(=O)C1CCCN(c2ncccn2)C1 (stereo unspecified)	i	-1.9%	0.0%	.	-8.3%	3.4%	i	-3.8%	-1.3%	-0.5%
COCCCN1C(=O)C(=O)/C(=C(/O)c2ccc(OC(C)C)cc2)C1c1ccc(O)c(OC)c1 (stereo unspecified)	i	?	-0.9%	4.3%[1.84 µM]	4.3%	0.0%	i	3.4%	0.7%	-0.4%
CN1CCN(CCCNC(=O)c2cc3c(-c4ccc(Cl)cc4)nn(C)c3s2)CC1	.	?	-17.4%	-0.8%	86.6%	3.1%	.	-21.5%	-2.3%[2.3 µM]	-11.4%
COC(=O)[C@H](C)NC(=O)Nc1cc(OC)ccc1OC	i	?	-10.5%	0.1%	6.4%	-1.4%	i	6.2%	-4.4%	5.5%
COc1ccc(OC)c(N2C(=O)C(Cl)=C(N3CCOCC3)C2=O)c1	.	?	-3.4%	-2.5%[0.0738 µM]	-9.1%[11.4 µM]	-0.1%	.	-5.4%[11.4 µM]	-3.6%[11 µM]	-12.1%[11.4 µM]
CC(C)c1nnc(NC(=O)c2cccs2)s1	.	3.6%	.	-0.1%	-13.4%	-13.3%	.	-7.0%	?	?
O=C(Nc1ccccc1)c1ccc(NCCN2CCOCC2)c(S(=O)(=O)N2CCOCC2)c1	i	-6.5%	-29.3%	-0.1%	1.9%	-0.4%	i	0.9%	-3.7%	9.0%
Cc1cccn2c(=O)c3cc(C(=O)NCCCn4ccnc4)n(C)c3nc12	i	?	17.5%	-0.7%	17.8%	-1.2%	i	-6.4%	-14.2%	7.5%
CNc1nc(-c2cccnc2)nc2ccccc12	i	?	-25.9%	0.1%	-4.3%	0.9%[2.29 µM]	i	-2.4%	-2.8%	-25.2%
CC1CN(c2cc(=O)n(-c3cccc(Br)c3)c(=O)[nH]2)CC(C)O1 (stereo unspecified)	.	-5.9%	.	0.0%	-5.2%	0.6%	.	-8.5%	0.3%	-17.5%
Cc1ccc(-n2c(=O)[nH]c3c(C(N)=O)nc(CC(C)C)nc32)cc1	i	8.4%	?	-0.2%	-9.3%	-0.4%	?	0.4%	-4.0%	-0.2%
Cc1ccc2oc(=O)cc(CN3CCOCC3)c2c1	i	23.2%	-1.1%	3.6%[57.5 µM]	-3.6%	-1.2%	?	-0.8%	-4.6%	6.8%
O=C1c2ccccc2C(Nc2ccc(F)c(Cl)c2)N1Cc1ccco1 (stereo unspecified)	.	?	?	-1.0%	12.6µM*	-5.0%	.	0.1%	-6.4%	?
